Source: PubChem (Johns Hopkins Ion Channel Center)
KCNQ2 enhance – KCNQ2 (rat) channel potentiation | O88943 | 310,000 tested, 0.54% active | CHO-K1 KCNQ2, FluxOR thallium flux fluorescence; hits give high values | AID 2239 | B-score at 10 µM;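 active = fluorescence ratio B-score at least 3 SD of library B-scores, with initial fluorescence B-score within 3 SD, cut at about 5.3 in these data; same plate scores as AID 2156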;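 note: B-score of peak minus minimum over baseline fluorescence ratio after K+ and Tl+ stimulus; positive B-score means potentiation of KCNQ2 with more thallium influx and brighter signal; only the inactives scoring about 0 or higher are listed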
Target sequence (O88943 whole entry, looked up): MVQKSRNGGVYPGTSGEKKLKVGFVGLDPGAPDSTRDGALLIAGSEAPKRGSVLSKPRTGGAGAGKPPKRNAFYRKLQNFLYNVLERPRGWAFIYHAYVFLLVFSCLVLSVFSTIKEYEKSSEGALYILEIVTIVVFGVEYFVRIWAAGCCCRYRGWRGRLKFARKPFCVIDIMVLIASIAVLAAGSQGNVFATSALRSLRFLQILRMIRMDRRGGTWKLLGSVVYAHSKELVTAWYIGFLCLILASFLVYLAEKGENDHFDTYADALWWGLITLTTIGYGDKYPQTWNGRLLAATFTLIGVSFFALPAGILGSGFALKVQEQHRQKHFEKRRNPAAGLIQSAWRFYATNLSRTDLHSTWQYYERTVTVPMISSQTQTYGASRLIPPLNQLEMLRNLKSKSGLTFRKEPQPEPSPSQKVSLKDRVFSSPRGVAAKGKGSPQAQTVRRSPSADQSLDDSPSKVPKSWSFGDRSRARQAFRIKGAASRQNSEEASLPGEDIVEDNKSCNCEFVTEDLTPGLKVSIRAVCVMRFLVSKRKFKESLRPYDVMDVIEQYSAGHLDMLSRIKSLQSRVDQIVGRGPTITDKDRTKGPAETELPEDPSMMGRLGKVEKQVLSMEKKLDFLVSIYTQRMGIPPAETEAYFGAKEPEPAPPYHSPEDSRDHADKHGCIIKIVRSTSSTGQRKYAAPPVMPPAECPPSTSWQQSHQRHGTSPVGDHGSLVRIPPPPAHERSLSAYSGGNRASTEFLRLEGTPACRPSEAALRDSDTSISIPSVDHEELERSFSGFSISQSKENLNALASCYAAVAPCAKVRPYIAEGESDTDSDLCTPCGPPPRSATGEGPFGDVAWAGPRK
KCNQ2 enhance baseline – second read-out of KCNQ2 enhance, no call of its own (marks repeat the call); B-score; compound at 10 µM; measured here: initial fluorescence intensity artifact check;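 brightness before thallium and not channel activity; 0 = typical well and far values either way flag optical interference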
An asterisk follows results filed as active.

`COc1cc(CCC(=O)Nc2c(C(=O)N3CCN(c4ccccc4OC)CC3)oc3ccccc23)on1` gave KCNQ2 enhance 2.1 and KCNQ2 enhance baseline -0.85.
CCC(=O)Nc1nnc(SCC(=O)N2c3ccccc3CC2C)s1 (centres undefined) was read as KCNQ2 enhance 0.85 and KCNQ2 enhance baseline 1.6.
Screening Cc1ccc(Cc2c(C)nc3nc(SCC(=O)NCCN4CCOCC4)nn3c2C)cc1 returned KCNQ2 enhance 0.68 and KCNQ2 enhance baseline -1.9.
For O=C(Oc1ccc([N+](=O)[O-])cc1)c1cccnc1 the results were KCNQ2 enhance 0.51 and KCNQ2 enhance baseline -0.23.
`O=C(Nc1ccc2c(c1)Cc1ccccc1-2)c1ccncc1` gave KCNQ2 enhance 1 and KCNQ2 enhance baseline -0.66.
Screening C[C@H](NC(=O)[C@@H]1Cc2ccccc2CN1C(=O)OC(C)(C)C)C(=O)NC1CCCC1 returned KCNQ2 enhance 0.23 and KCNQ2 enhance baseline -2.2.
C=CCN(c1ccccc1)S(=O)(=O)c1cccc(C(=O)Nc2ccncc2)c1 was read as KCNQ2 enhance 1.8 and KCNQ2 enhance baseline -0.13.
`CC(C)NS(=O)(=O)c1ccc(CCC(=O)NCc2ccncc2)cc1` gave KCNQ2 enhance 0.03 and KCNQ2 enhance baseline 0.
Screening O=C(Nc1ccnn1C1CCN(Cc2cc3ccccc3[nH]2)CC1)C1CCOC1 (centres undefined) returned KCNQ2 enhance 5.7* and KCNQ2 enhance baseline 0.01*.
Screening CCCS(=O)(=O)NCCc1cc2cc(C)c(C)cc2[nH]c1=O returned KCNQ2 enhance 1.7 and KCNQ2 enhance baseline -0.25.
Screening O=C(NC1CCCC1)C(c1ccncc1)N(C(=O)c1csnn1)c1ccc(Cl)cc1 (centres undefined) returned KCNQ2 enhance 0.41 and KCNQ2 enhance baseline 0.66.
`Cc1c(Cl)cccc1NC(=S)N1CCN(C(=O)C2CCCO2)CC1` (centres undefined) gave KCNQ2 enhance 0.9 and KCNQ2 enhance baseline 0.92.
For COc1cccc(/C=N/NC(=O)c2oc3nc(-c4ccccc4)cc(-c4ccco4)c3c2N)c1 the results were KCNQ2 enhance 0.14 and KCNQ2 enhance baseline -0.72.
Cc1cccc(NC(=O)CCN2CCC(C(N)=O)CC2)c1 was read as KCNQ2 enhance 1.2 and KCNQ2 enhance baseline 0.07.
Screening Nc1ccc2nc(SCc3cccc(F)c3)sc2c1 returned KCNQ2 enhance 0.48 and KCNQ2 enhance baseline -2.5.
`COC(=O)c1ccc(NC(=O)CSc2nc3[nH]ncc3c(=O)[nH]2)cc1` gave KCNQ2 enhance 0.55 and KCNQ2 enhance baseline -0.28.
CCOc1cccc(NC(=O)CSc2nc(C)c3c(c2C#N)CCCC3)c1 was read as KCNQ2 enhance 0.36 and KCNQ2 enhance baseline -0.02.
For CNc1c([N+](=O)[O-])cnn1-c1ccc(C)cc1 the results were KCNQ2 enhance 2.5 and KCNQ2 enhance baseline 0.74.
For CC1=NN(Cc2ccccc2)C(=O)/C1=C\c1ccc(N(C)C)cc1 the results were KCNQ2 enhance 0.39 and KCNQ2 enhance baseline -0.1.
Cc1nn2cc(-c3ccc(-c4ccccc4)cc3)nc2s1 was read as KCNQ2 enhance 0.43 and KCNQ2 enhance baseline 0.02.
`S=C(NCc1ccccc1)Nc1ccc(Cl)cc1` gave KCNQ2 enhance 2.1 and KCNQ2 enhance baseline 1.6.
O=C(Nc1nnc(C2CC2)s1)c1ccncc1 was read as KCNQ2 enhance 0.26 and KCNQ2 enhance baseline 1.1.
For COc1ccc(C2=NOC(CNC(=O)c3ccccc3Br)C2)c(OC)c1 (centres undefined) the results were KCNQ2 enhance 0.4 and KCNQ2 enhance baseline -0.61.
For Cc1ccc(S(=O)(=O)Cn2nnnc2CN(Cc2ccco2)CC2CCCO2)cc1 (centres undefined) the results were KCNQ2 enhance 2.5 and KCNQ2 enhance baseline -4.3.
`Cc1n[nH]c(=O)c2c(NC(=O)COC(=O)COc3cccc(Br)c3)oc(C)c12` gave KCNQ2 enhance 0.71 and KCNQ2 enhance baseline -0.11.
O=C(NC1CCCCC1)c1cc([N+](=O)[O-])ccc1N1CCCC1 was read as KCNQ2 enhance 0.12 and KCNQ2 enhance baseline -0.16.
CN1C(=O)C2ON(c3ccccc3)C(c3cccs3)C2C1=O (centres undefined) was read as KCNQ2 enhance 0.29 and KCNQ2 enhance baseline 0.
CCN(CC)S(=O)(=O)c1ccc(OCC2CCCCO2)c([N+](=O)[O-])c1 (centres undefined) was read as KCNQ2 enhance 1 and KCNQ2 enhance baseline 0.49.
Screening Cc1onc(-c2ccccc2)c1CNS(=O)(=O)c1ccccc1[N+](=O)[O-] returned KCNQ2 enhance 0.48 and KCNQ2 enhance baseline 1.4.
For COc1ccc(CSc2nc(C)cc(C)c2S(C)(=O)=O)cc1 the results were KCNQ2 enhance 0.35 and KCNQ2 enhance baseline 0.71.
C/C(CC(=O)Nc1ccc2c(c1)OCCO2)=N\NC(=O)c1ccccn1 was read as KCNQ2 enhance 0.31 and KCNQ2 enhance baseline -0.85.
Screening NCCc1ccc(O)c(O)c1 returned KCNQ2 enhance 0.51 and KCNQ2 enhance baseline 0.08.
Screening CCOC(=O)c1c(C)[nH]c(C(=O)OCC(=O)NC(C)(C)C)c1C returned KCNQ2 enhance 0.01 and KCNQ2 enhance baseline -1.
For NC(=O)c1oc2ccccc2c1NC(=O)Cc1ccccc1 the results were KCNQ2 enhance 0.79 and KCNQ2 enhance baseline -0.95.
For CN(C(=O)COC(=O)/C=C/c1ccccc1[N+](=O)[O-])c1ccccc1 the results were KCNQ2 enhance 0.68 and KCNQ2 enhance baseline -0.03.
O=C(c1cccs1)N1CCN=C1SCc1ccc(Cl)cc1 was read as KCNQ2 enhance 0.28 and KCNQ2 enhance baseline 0.11.
Screening COc1ccc(CC(=O)NNC(=O)COc2ccc3ccccc3c2)cc1 returned KCNQ2 enhance 0.66 and KCNQ2 enhance baseline 1.8.
For Clc1ccc(Nc2ccc(NCc3ccccc3)nn2)cc1 the results were KCNQ2 enhance 0.01 and KCNQ2 enhance baseline -0.15.
`CCCOc1ccc(/C(O)=C2/C(=O)C(=O)N(CCCn3ccnc3)C2c2cccs2)cc1` (centres undefined) gave KCNQ2 enhance 0.11 and KCNQ2 enhance baseline 1.
For CCn1c(SCc2nc3scc(-c4ccccc4)c3c(=O)[nH]2)nnc1-c1cccs1 the results were KCNQ2 enhance 0.98 and KCNQ2 enhance baseline -0.23.
Screening O=C(NCc1ccncc1)c1ccc(NS(=O)(=O)c2cccc([N+](=O)[O-])c2)cc1 returned KCNQ2 enhance 0.52 and KCNQ2 enhance baseline -0.01.
Cc1ccc(-c2csc(-c3cc(C)on3)n2)cc1 was read as KCNQ2 enhance 0.19 and KCNQ2 enhance baseline 0.85.
For CC1(C)CC(=O)C2=C(C1)OC1=C(C(=O)CC(C)(C)C1)C2c1ccc(O)c([N+](=O)[O-])c1 the results were KCNQ2 enhance 0.76 and KCNQ2 enhance baseline -0.5.
For COc1ccc(C(=O)N2CCN(Cc3ccc4c(c3)OCO4)CC2)cc1[N+](=O)[O-] the results were KCNQ2 enhance 0.67 and KCNQ2 enhance baseline 1.7.
COc1cc(/C=N/NC(=O)c2cccnc2)ccc1OC(=O)c1ccco1 was read as KCNQ2 enhance 0.7 and KCNQ2 enhance baseline 0.02.

Continued; it opens with the 2 that closed the last part.
For COc1ccc(C(=O)N2CCN(Cc3ccc4c(c3)OCO4)CC2)cc1[N+](=O)[O-] the results were KCNQ2 enhance 0.67 and KCNQ2 enhance baseline 1.7.
COc1cc(/C=N/NC(=O)c2cccnc2)ccc1OC(=O)c1ccco1 was read as KCNQ2 enhance 0.7 and KCNQ2 enhance baseline 0.02.
`COc1ccccc1NC(=O)/C=C1\SCC(=O)N1C` gave KCNQ2 enhance 0.36 and KCNQ2 enhance baseline 0.27.
Screening Cn1c(=O)n(C/C=C/c2ccccc2)c(=O)c2c1nc1n2CCCN1Cc1ccccc1 returned KCNQ2 enhance 0.76 and KCNQ2 enhance baseline 0.01.
Screening Cc1ccc(C(=O)CSC2=C(C#N)C(c3ccco3)C3=C(CCCC3=O)N2)cc1 (centres undefined) returned KCNQ2 enhance 6.6* and KCNQ2 enhance baseline -0.58*.
For COc1ccc(CCNC(=O)C2CC3Cn4c(nc5cc6ccccc6cc54)C3N2C)cc1 (centres undefined) the results were KCNQ2 enhance 0.73 and KCNQ2 enhance baseline -0.59.
For O=C(NCC(c1ccco1)N1CCOCC1)c1cccc(Cl)c1 (centres undefined) the results were KCNQ2 enhance 1.1 and KCNQ2 enhance baseline -0.22.
`COc1cccc(NC(=O)Nc2nnc(Cc3ccccc3)s2)c1` gave KCNQ2 enhance 0.17 and KCNQ2 enhance baseline -0.72.
CCCOc1ccc(-c2c(C(=O)N/N=C/C3CCCCC3)nnn2-c2nonc2N)cc1 was read as KCNQ2 enhance 1 and KCNQ2 enhance baseline 0.02.
O=C(COc1ccc(Br)cc1Cl)NC(=S)N1CCc2ccccc21 was read as KCNQ2 enhance 1.3 and KCNQ2 enhance baseline -0.66.
For COc1ccc(NS(=O)(=O)c2cccs2)c(OC)c1 the results were KCNQ2 enhance 0.19 and KCNQ2 enhance baseline 1.2.
CC(C)(C)NC(=O)CSc1nc2ccc(NC(=O)CSc3nnc(N)s3)cc2s1 was read as KCNQ2 enhance 0.7 and KCNQ2 enhance baseline 0.58.
COc1ccccc1N(C)S(=O)(=O)c1ccc(C(=O)NC2=NCCS2)cc1 was read as KCNQ2 enhance 0.41 and KCNQ2 enhance baseline 1.7.
Cc1[nH]c2c(Cl)cccc2c(=O)c1CN1CCCC1 was read as KCNQ2 enhance 0.77 and KCNQ2 enhance baseline 1.9.
`COc1nc(-c2ccccc2)ccc1-c1noc(COc2ccccc2)n1` gave KCNQ2 enhance 0.03 and KCNQ2 enhance baseline -1.5.
CC(=O)c1c(C)oc2ccc(O)c(CN3CCOCC3)c12 was read as KCNQ2 enhance 1.4 and KCNQ2 enhance baseline 0.73.
O=C(c1ccc(NS(=O)(=O)c2cccc(F)c2)cc1)N1CCCCC1 was read as KCNQ2 enhance 1.9 and KCNQ2 enhance baseline -0.49.
C=CCn1c(SCc2nc3ccccc3[nH]2)nnc1-c1ccc(OC)cc1 was read as KCNQ2 enhance 0.66 and KCNQ2 enhance baseline -1.6.
Screening COc1ccc(-c2nc(SCC(=O)Nc3cc(C)on3)n[nH]2)cc1 returned KCNQ2 enhance 0.22 and KCNQ2 enhance baseline -0.43.
`COc1cc(C(C)=O)ccc1OC(=O)CN1C(=O)c2ccccc2C1=O` gave KCNQ2 enhance 0.52 and KCNQ2 enhance baseline 0.9.
O=C(NCc1ccco1)c1ccc(N2CCCC2=O)cc1 was read as KCNQ2 enhance 0.26 and KCNQ2 enhance baseline -0.14.
For O=C(/C=C/c1ccccc1[N+](=O)[O-])N1CCN(C(=O)c2ccco2)CC1 the results were KCNQ2 enhance 0.55 and KCNQ2 enhance baseline -0.89.
`CN(CC(=O)Nc1ccc(F)c(F)c1)S(=O)(=O)c1cccc2nsnc12` gave KCNQ2 enhance 0.16 and KCNQ2 enhance baseline -0.1.
Screening CCOC(=O)c1cnc2c(C)c(Cl)ccc2c1N1CCN(CC)CC1 returned KCNQ2 enhance 2.8 and KCNQ2 enhance baseline 0.71.
O=C(c1cc2ccccc2oc1=O)N(Cc1ccccc1)CC1CCCO1 (centres undefined) was read as KCNQ2 enhance 1.2 and KCNQ2 enhance baseline -0.25.
For Cc1ccccc1CCNC(=O)C1CCCN(c2cnccn2)C1 (centres undefined) the results were KCNQ2 enhance 1.4 and KCNQ2 enhance baseline -1.4.
Screening COc1ccc(OC)c(NC(=O)c2cccnc2)c1 returned KCNQ2 enhance 0.43 and KCNQ2 enhance baseline 0.24.
For COc1cccc(NC(=O)CSc2nnc(-c3cccc(OC(C)C)c3)n2N)c1 the results were KCNQ2 enhance 0.5 and KCNQ2 enhance baseline 2.1.
CCN(CC)CCCn1c(C)cc2c(c1=O)C(c1ccccc1)C(C#N)=C(N)O2 (centres undefined) was read as KCNQ2 enhance 2.5 and KCNQ2 enhance baseline 0.54.
CC(=O)c1c(C)[nH]c(C(=O)CSc2nc3ccccc3n2C)c1C was read as KCNQ2 enhance 0.28 and KCNQ2 enhance baseline 0.46.
For Cc1nc2c(C(=O)NCCc3ccccc3Cl)c[nH]n2c(=O)c1Cl the results were KCNQ2 enhance 7.2* and KCNQ2 enhance baseline -1.5*.
Screening CN1C(=O)SC(Nc2cccc3ccccc23)C1=O (centres undefined) returned KCNQ2 enhance 1.9 and KCNQ2 enhance baseline -0.48.
`COC(=O)Sc1nc(N2CCOCC2)c2c(c1C#N)CC(C)(C)OC2` gave KCNQ2 enhance 0.71 and KCNQ2 enhance baseline -0.37.

Already shown: entries from further up.
For CNc1c([N+](=O)[O-])cnn1-c1ccc(C)cc1 the results were KCNQ2 enhance 2.5 and KCNQ2 enhance baseline 0.74.
For CC1=NN(Cc2ccccc2)C(=O)/C1=C\c1ccc(N(C)C)cc1 the results were KCNQ2 enhance 0.39 and KCNQ2 enhance baseline -0.1.
Cc1nn2cc(-c3ccc(-c4ccccc4)cc3)nc2s1 was read as KCNQ2 enhance 0.43 and KCNQ2 enhance baseline 0.02.
`S=C(NCc1ccccc1)Nc1ccc(Cl)cc1` gave KCNQ2 enhance 2.1 and KCNQ2 enhance baseline 1.6.
O=C(Nc1nnc(C2CC2)s1)c1ccncc1 was read as KCNQ2 enhance 0.26 and KCNQ2 enhance baseline 1.1.
For COc1ccc(C2=NOC(CNC(=O)c3ccccc3Br)C2)c(OC)c1 (centres undefined) the results were KCNQ2 enhance 0.4 and KCNQ2 enhance baseline -0.61.
For Cc1ccc(S(=O)(=O)Cn2nnnc2CN(Cc2ccco2)CC2CCCO2)cc1 (centres undefined) the results were KCNQ2 enhance 2.5 and KCNQ2 enhance baseline -4.3.
`Cc1n[nH]c(=O)c2c(NC(=O)COC(=O)COc3cccc(Br)c3)oc(C)c12` gave KCNQ2 enhance 0.71 and KCNQ2 enhance baseline -0.11.
O=C(NC1CCCCC1)c1cc([N+](=O)[O-])ccc1N1CCCC1 was read as KCNQ2 enhance 0.12 and KCNQ2 enhance baseline -0.16.

An excerpt, so the mix of outcomes need not match the whole.
